High-throughput results deposited in PubChem BioAssay by several laboratories.
Sa RN4220 lethal: kills Staphylococcus aureus RN4220. S. aureus RN4220 growth, OD600, 16 h. inhibition, % (no concentration beside the values). 330,000 compounds, 0.33% hits. AID 1259311;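 active means z-score of -3 or lower and OD600 up to 0.18 on both plates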;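 further: plate controls were untreated cells for no effect and reference antibiotic for full effect; stock transfer was 100 nL into about 80 µL; one replicate is shown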
PrP UTR inh: suppresses PrP 5' UTR mRNA reporter expression; inhibition, % (no concentration beside the values); cell-based PrP 5' UTR mRNA reporter, plate reader; 340,000 compounds, 0.35% hits;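 active means every replicate at 50% or more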;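 further: 0 = median of the neutral control wells; tested in H4 reporter cells; numbers are from one replicate; inactives centre near -14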
ugtP null kill: kills S. aureus RN4220 lacking UgtP | S. aureus RN4220 ugtP deletion, OD600 growth, 16 h; some inactives read as strong as hits | growth inhibition, % (test concentration not listed) | 330,000 compounds, 0.54% hits;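 active means z-score under -3 and OD600 up to 0.15 on both plates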;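 further: plate controls were untreated wells for no effect and antibiotic for full effect; wells of about 80 µL received 100 nL stock; the first replicate is given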
Autofluor counter: counter-screen for toxin protease inhibitors: compound fluorescence. fluorescence intensity (test concentration not listed). 360,000 compounds, 3.1% hits. compound autofluorescence counterscreen, microsphere flow cytometry; stronger effect = higher value;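 active means at least 3 SD above the mean of all compounds, about 16000 in these data; inconclusive means too few beads counted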;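 further: 100 nL of 1 mM stock went into each well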
Mtb hypoxia rep: reduces hypoxia-regulated biosensor signal in M. tuberculosis. M. tuberculosis hypoxia-regulated fluorescent reporter, fluorescence. fluorescence inhibition, % (no concentration beside the values). 300,000 compounds, 0.1% hits;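 active means 35 to 45% if threefold the growth effect, above 45% if 1.5-fold the growth effect; inactive means the rest, general growth blockers included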;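 further: wells of about 50 µL received 100 nL stock; 0% = vehicle wells and 100% = reference inhibitor wells; whole bacteria with a GFP reporter of the hypoxia response; strong numbers were not always called active; many hits fall short of the cut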
BJeLR lethal: BJeLR cell viability loss | BJeLR (HRASV12) viability, CellTiter-Glo ATP luminescence, 48 h; reference of the scale not given here | inhibition, % (no concentration beside the values) | 300,000 compounds, 0.17% hits | AID 1554;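 active means replicate mean above 50%; inconclusive means above 50% but judged a plate artefact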;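 further: 50 nL library stock added to about 25 µL; numbers are from one replicate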
Mtb hypoxia rep growth: second read-out of Mtb hypoxia rep, no call of its own (marks repeat the call); growth inhibition, %; measured here: M. tuberculosis growth (absorbance);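 0% = vehicle and 100% = reference antibiotic; read after six days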
* marks the source's active call; other numbers are inactive results; ? = inconclusive; / = not tested or not shown.

SMILES | Sa RN4220 lethal | PrP UTR inh | ugtP null kill | Autofluor counter | Mtb hypoxia rep | Mtb hypoxia rep growth | BJeLR lethal
CC(=O)Nc1ccc(S(=O)(=O)NCCC(=O)Nc2cccc(Cl)c2)cc1 | 0.3 | -17.4 | 9.7 | 5291 | 0.3 | -9.3 | -1.1
O=C1C(CSCc2ccccc2)NC(=S)N1c1ccccc1 (configuration not stated) | -0.6 | / | 5.7 | 4424 | -2.2 | 3.5 | 7.3
CC(Oc1ccc(Br)cc1)C(=O)NCC1(N2CCCCC2)CCCCC1 (configuration not stated) | 3.6 | -27.5 | 4.8 | 14203 | -0.4 | -1.3 | /
CN(C)c1ccc(C(c2ccc(N(C)C)cc2)C(O)c2ccccc2)cc1 (configuration not stated) | -0.3 | -7.3 | 6.7 | ? | 13.3 | 7.5 | /
O=Cc1cn(CC(=O)N2CCCCC2)c2ccccc12 | 3.2 | -9.3 | 6.1 | 2538 | 2.9 | 7.0 | -35.5
O=C(NCCOc1ccccc1)c1ncn[nH]1 | 4.2 | -24.3 | 10.7 | 9542 | 5.3 | -3.3 | 0.8
COc1cccc(-n2nnnc2SCC(=O)Nc2cccc(NC(C)=O)c2)c1 | 2.5 | -2.7 | 5.5 | 7958 | 14.7 | 7.0 | 5.5
Cc1ccc([N+](=O)[O-])cc1NC1OC(CO)C(O)C1O (configuration not stated) | 6.7 | -2.1 | 2.8 | 10958 | 2.3 | 0.5 | 9.0
COc1cc(C(=O)Nc2ccc3c(c2)ncn3C)cc(OC)c1OC | -2.4 | -12.2 | -0.1 | 3801 | -4.8 | 4.0 | 29.2
O=C(Cc1ccc([N+](=O)[O-])cc1)Nc1ccc(O)cc1C(=O)O | 4.0 | -16.4 | 10.9 | 2312 | 13.0 | 4.5 | 1.5
CCN(CC)C(=O)/C(=C/c1ccc(F)cc1)NC(C)=O | 1.4 | 0.1 | -3.4 | 2558 | 2.6 | 10.7 | -1.0
CC(C)c1ccc(NC2CCCN(C(=O)c3ccnc(Cl)c3)C2)cc1 (configuration not stated) | 7.1 | -6.4 | 6.2 | 5627 | 3.1 | -0.4 | 1.2

Reprinted from the part before: two entries, followed by the next part.
SMILES | Sa RN4220 lethal | PrP UTR inh | ugtP null kill | Autofluor counter | Mtb hypoxia rep | Mtb hypoxia rep growth | BJeLR lethal
CCN(CC)C(=O)/C(=C/c1ccc(F)cc1)NC(C)=O | 1.4 | 0.1 | -3.4 | 2558 | 2.6 | 10.7 | -1.0
CC(C)c1ccc(NC2CCCN(C(=O)c3ccnc(Cl)c3)C2)cc1 (configuration not stated) | 7.1 | -6.4 | 6.2 | 5627 | 3.1 | -0.4 | 1.2
Cc1ccnc(NC(=O)CCC(=O)N(CC(=O)NC2CCCCC2)c2ccc3c(c2)OCO3)c1 | -0.9 | 7.0 | 10.0 | 2140 | / | / | 4.8
CCN(CC(=O)NCc1cccs1)C(=O)c1ccc(S(=O)(=O)Nc2ccccc2Cl)cc1 | 11.2 | -10.1 | 3.0 | 6364 | 7.6 | 0.1 | /
O=C(NNC(=O)c1cccc2ccccc12)c1ccccc1O | 26.1 | -7.3 | 12.0 | 4329 | 10.8 | -7.3 | 2.7
CC1=CN2C(=N)/C(=C/c3ccc(Sc4ccc(Cl)cc4)o3)C(=O)N=C2S1 | -7.4 | -25.0 | -9.0 | 2563 | 8.7 | 0.1 | -13.2
CCCCn1c(SCC(=O)Nc2oc(C)c3c(C)n[nH]c(=O)c23)nc2cc(S(N)(=O)=O)ccc21 | 0.4 | -14.8 | 3.7 | ? | 7.5 | 8.8 | -1.5
Cc1cc(F)ccc1S(=O)(=O)Nc1ccc(C(=O)N2CCCCC2)cc1 | 5.8 | -9.3 | 0.8 | 4264 | 17.5 | 11.7 | /
CC(=O)c1ccc(S(=O)(=O)N2CCN(C(=O)CN3C(=O)NC4(CCCC4)C3=O)CC2)cc1 | -0.3 | -9.7 | 9.0 | 5351 | 2.1 | 12.8 | 9.7
CC(Oc1ccc(S(=O)(=O)N2CCCC2)cc1[N+](=O)[O-])C(=O)NC(C)c1ccccc1 (configuration not stated) | 4.0 | -19.0 | 0.8 | 4888 | 7.0 | 3.3 | -1.7
COc1cc(/C=N/NC(=O)C[n+]2ccccc2)cc(OC)c1OC | / | -5.3 | / | 2438 | / | / | 15.5
Cc1ccc(NC(=S)N2CCC(NC(=O)c3ccc(C)cc3)CC2)cc1 | 3.7 | -21.9 | -5.2 | 3751 | 8.4 | 0.6 | -4.0
O=C(N/N=C/c1ccc([N+](=O)[O-])cc1)c1cccc2cc[nH]c12 | / | -14.5 | / | 3347 | / | / | 13.7
CC1(C)CSC(=NCCc2ccccc2)N1C(=O)c1ccc(C#N)cc1 | 4.5 | -8.6 | 10.4 | 7476 | 6.9 | 0.6 | -4.3

Pulled by structure from above, 2 records:
SMILES | Sa RN4220 lethal | PrP UTR inh | ugtP null kill | Autofluor counter | Mtb hypoxia rep | Mtb hypoxia rep growth | BJeLR lethal
Cc1ccc(NC(=S)N2CCC(NC(=O)c3ccc(C)cc3)CC2)cc1 | 3.7 | -21.9 | -5.2 | 3751 | 8.4 | 0.6 | -4.0
O=Cc1cn(CC(=O)N2CCCCC2)c2ccccc12 | 3.2 | -9.3 | 6.1 | 2538 | 2.9 | 7.0 | -35.5

Grouped by structure: the compounds so far containing an aryl thioether with sulfur outside any ring (3)
SMILES | Sa RN4220 lethal | PrP UTR inh | ugtP null kill | Autofluor counter | Mtb hypoxia rep | Mtb hypoxia rep growth | BJeLR lethal
COc1cccc(-n2nnnc2SCC(=O)Nc2cccc(NC(C)=O)c2)c1 | 2.5 | -2.7 | 5.5 | 7958 | 14.7 | 7.0 | 5.5
CC1=CN2C(=N)/C(=C/c3ccc(Sc4ccc(Cl)cc4)o3)C(=O)N=C2S1 | -7.4 | -25.0 | -9.0 | 2563 | 8.7 | 0.1 | -13.2
CCCCn1c(SCC(=O)Nc2oc(C)c3c(C)n[nH]c(=O)c23)nc2cc(S(N)(=O)=O)ccc21 | 0.4 | -14.8 | 3.7 | ? | 7.5 | 8.8 | -1.5

(next part)
SMILES | Sa RN4220 lethal | PrP UTR inh | ugtP null kill | Autofluor counter | Mtb hypoxia rep | Mtb hypoxia rep growth | BJeLR lethal
C=CCn1c(CCNC(=O)c2cccs2)nnc1SCC(=O)Nc1cccc(Cl)c1C | -2.2 | -18.3 | -0.1 | 20193* | 8.8 | 19.5 | -6.2
COC(=O)c1cn(NC(=O)Cc2ccc(OC)c(OC)c2)c(=O)c2ccccc12 | 4.0 | 0.9 | 1.6 | 3271 | 9.4 | -1.2 | /
COc1cc(C(=O)NC2CC(C)(C)CC(C)(C)C2)ccc1OC1CCN(C(C)=O)CC1 | -2.5 | -13.5 | 4.2 | 4450 | 0.6 | -1.5 | 6.7
CCN(C(=O)CSc1ncccn1)c1cccc2ccccc12 | 3.2 | -24.2 | -0.8 | 3922 | 15.7 | 43.3 | /
O=C(NCCc1ccccc1)C1CCC(=O)N(CCCN2CCCC2=O)C1 (configuration not stated) | 1.3 | -19.9 | 6.9 | 4043 | 1.1 | 2.5 | -9.5
Cn1cnnc1Sc1ccc(/C=C/C(=O)c2ccc(O)cc2)cc1[N+](=O)[O-] | -0.1 | -0.6 | 1.4 | 1919 | / | / | 23.1
CCOC(=O)C1CCN(C(=O)C(C)c2ccc([N+](=O)[O-])cc2)CC1 (configuration not stated) | 3.8 | -10.5 | 2.3 | 2349 | -1.6 | -11.1 | 0.5
O=C(CN1C(=O)CC(c2ccccc2)S(=O)(=O)c2ccccc21)N1CCCC1 (configuration not stated) | 1.4 | 3.6 | 4.3 | 4847 | -1.5 | -4.4 | -4.5
CCOC(=O)c1cc(C#N)c(SCC(=O)c2cc(C#N)c(SC)nc2C)[nH]c1=O | 12.6 | -24.4 | -1.4 | 8940 | 9.3 | 6.2 | -1.5
O=C1c2ccccc2C(=O)N1CCc1ccccn1 | 1.0 | -7.9 | 5.4 | 11589 | 9.5 | 9.9 | -2.9
CC(=O)N1N=C(c2ccncc2)CC1c1ccccc1O (configuration not stated) | / | -16.2 | / | 3907 | / | / | -3.8
O=C(Cc1ccccc1)NNC(=O)c1ccc(Br)o1 | 2.5 | -19.5 | 6.8 | 5777 | -4.6 | -6.3 | -14.4
Cc1ccc(C2CC(=O)Oc3cc(O)ccc32)cc1 (configuration not stated) | / | -6.1 | / | 3654 | / | / | -3.1
O=C(CSC1=Nc2ccccc2C2=NC(CC(=O)NCc3ccco3)C(=O)N12)NCc1ccco1 (configuration not stated) | 2.3 | -7.5 | -3.0 | 9750 | -5.5 | 15.3 | 8.1
COc1ccccc1CN(C)C(=O)c1cccc(S(=O)(=O)N2CCCc3ccccc32)c1 | 10.9 | -9.9 | -1.2 | 8727 | 7.4 | -3.1 | /
CCOC(=O)N1CCC(NC(=O)C2CCCN(S(C)(=O)=O)C2)CC1 (configuration not stated) | 0.7 | -14.8 | -4.8 | 11009 | 1.2 | 6.5 | 6.9
COc1ccccc1C1C=C(c2ccccc2)Nc2nnnn21 (configuration not stated) | 5.9 | -40.6 | 2.6 | 20241* | 14.3 | 20.0 | -9.9
CCCCn1c(N)c(N(CC(C)C)C(=O)CCCc2nc3ccccc3s2)c(=O)[nH]c1=O | 2.0 | -7.3 | 2.6 | 4356 | -0.3 | -2.5 | -3.9
Cc1ccc2[nH]nc(C(=O)N3CCCC(C(=O)c4ccc(Cl)cc4)C3)c2c1 (configuration not stated) | 5.6 | -34.0 | -5.9 | 4254 | 1.2 | -1.0 | 10.1
CC(C)=CCC/C(C)=C/CNC(=O)C[C@H]1C[C@H](C(=O)N2CCOCC2)[C@@]2(CCC3CCCC3)c3[nH]c4cc(-c5ccco5)ccc4c3CCN2C1=O | 3.3 | -0.7 | -5.3 | 3999 | -9.5 | 7.0 | /
CCc1ccc2c(c1)C(c1ccc([N+](=O)[O-])cc1)=NNC(c1ccc(F)cc1)=N2 | -7.4 | -16.2 | -9.4 | 9914 | -9.2 | -0.1 | 4.3
COc1ccc(OCC(O)CNC(=O)c2ccc(OC)cc2)cc1 (configuration not stated) | 8.8 | -14.0 | 2.1 | 2605 | -2.2 | -10.8 | -7.0
CCn1c(N)c(C(=O)NCc2cccnc2)sc1=S | 6.4 | -4.8 | 2.7 | 3243 | 6.2 | 4.6 | 14.8
Cc1ccc(/C(N)=N/OC(=O)c2cccs2)cc1 | 9.8 | -121.8 | 9.0 | 3084 | 2.9 | 8.3 | -1.8
CS(=O)(=O)N1CCN(c2ccc(NC(=O)c3cc4ccccc4o3)cc2)CC1 | -0.7 | -50.8 | -1.3 | 3855 | 9.9 | 8.0 | 0.2
COc1ccc(C(O)c2nccn2Cc2ccccc2)cc1 (configuration not stated) | 3.5 | -16.7 | 2.6 | 7922 | 10.1 | 6.3 | -2.7
CCC(NC(=O)CCCc1ccccc1)c1ccccc1 (configuration not stated) | 3.1 | -17.7 | 20.4 | 2087 | 3.7 | 11.3 | -5.6
CCOC(=O)[C@@H]1[C@H]2COc3ccccc3[C@H]2N2C(=O)N(c3ccc(F)cc3)C(=O)[C@]12C | / | -1.3 | / | 2910 | / | / | 8.1
COc1cc(NC(=O)c2cccc3c2C(=O)N(Cc2cccnc2)C3)cc(OC)c1OC | -11.0 | 2.4 | -1.6 | 5614 | -4.3 | -4.7 | -1.7
C=CCNC(=S)Nc1ccc(Br)cc1F | / | -31.5 | / | 2119 | / | / | -0.1
CC1CCC2(CC1)NC(=O)N(CC(=O)N1CCN(S(=O)(=O)c3ccc4c(c3)CCC4)CC1)C2=O (configuration not stated) | 1.8 | -20.2 | 2.2 | 3328 | -2.3 | 2.5 | /
COc1cccc(-c2ccc(SCC(=O)N3CCN(c4ccccc4)CC3)nn2)c1 | 9.3 | -15.8 | 7.0 | 3117 | 8.5 | 6.8 | 4.1
Cc1cc(C(=O)C(=O)NC(C)C)c(C)n1-c1ccc([N+](=O)[O-])cc1 | 1.3 | 6.4 | 1.7 | 11008 | -6.4 | 1.9 | 2.1
Cc1ccc(S(=O)(=O)N(CC(=O)N(C(C)C)C(C)C)C(=O)N2CCN(C)CC2)cc1 | 1.7 | -0.1 | 3.5 | 5437 | -7.0 | 1.5 | -19.1

This is a random part of the collection, and some 4.1% of all compounds hit somewhere here.
